Assay outcomes from PubChem BioAssay.
HIV Env fusion – inhibitors of HIV Env-mediated cell fusion. HeLa-JRFL Env/CEM21 cell fusion, luciferase. inhibition, % at 12.3 µM. hit rate 1.1% among 360,000;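 active = mean replicate inhibition score of at least 50 and every replicate individually at or above 50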;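 note: 0% = plate neutral controls and 100% = maraviroc near 300 nM; one replicate is shown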
eIF4H FP inh – inhibitors of RNA binding by human eIF4H; eIF4H fluorescence polarization binding assay; hit rate 0.94% among 290,000; AID 2012; inhibition, % at 35 µM;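 active = 50% or more with normal probe brightness, or confirmed in later tests; about a fifth of its hits are not listed in these tables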;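 note: calls also rest on retests at 20 µM and on dose response follow-up; 0% = protein and probe with vehicle and 100% = probe without protein; strong numbers were not always called active; many hits fall short of the cut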
CSC inhib – blocks cancer stem cells; hit rate 1.1% among 300,000; cancer stem cell-like cells viability, luminescence; inhibition, % at 7.5 µM;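 active = mean at 75% or more and at least half the replicates too; tested in HMLE shEcad cells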;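 note: 0% = median of negative and 100% = median of positive control wells; the first replicate is given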
Rce1 inhib – inhibitors of yeast Ras-converting enzyme. Q03530. yeast membranes, quenched prenylated peptide cleavage fluorescence. calls only. hit rate 0.27% among 290,000;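 active = fall in fluorescence gain of 50% or more versus controls, with final raw signal at or below 3038400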;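 note: plate controls were neutral control wells for no effect and wells lacking membranes for full effect; tested at 10 µM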
Yeast UUG start – yeast start codon fidelity modulation; S. cerevisiae UUG-firefly luciferase reporter, luminescence/redox ratio; activity score, % at 18.7 µM; hit rate 0.13% among 350,000; AID 602363;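 active = replicate mean at a twofold rise or more, about +100% in these data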;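 note: firefly luciferase made from a UUG start codon reports start codon fidelity; reporter light over untreated wells divided by growth signal over untreated wells; some hits fall short of that in this replicate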
MT1-MMP act inh – blocks activation of human MT1-MMP. P50281. HT1080 RFP-PRO-GFP cells, GFP/RFP ratio fluorescence, overnight; percent of plate control window, DMSO zero. GFP/RFP ratio change, % at 20 µM. hit rate 0.061% among 360,000. AID 651647;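 active = GFP/RFP ratio change of at least 30% with cell ATP level not reduced by more than half and red fluorescence within 50% of control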; note: strong numbers were not always called active
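Material – HT1080 RFP-PRO-GFP cells · Control set – DMSO wells and RFP-L50D-GFP cells · Incubation – overnight cell settling, then overnight compound exposure, 37 °C, 5% CO2 · Compound dosing – single-point 20 µM compound, 1% DMSO · Read-out – GFP/RFP fluorescence ratio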
PABP polyA inh – blocks human PABP binding to poly(A) RNA. fluorescence polarization. P11940. inhibition, % at 35 µM. AID 2014. hit rate 1% among 290,000;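 active = 50% or more with normal probe brightness, or confirmed in later tests; about a fifth of its hits are not listed in these tables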;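 note: calls also rest on retests at 20 µM and on dose response follow-up; controls were probe without protein and protein plus probe with vehicle; some compounds called inactive have numbers as strong as hits; many hits fall short of the cut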
Target sequence (P11940 whole entry, looked up): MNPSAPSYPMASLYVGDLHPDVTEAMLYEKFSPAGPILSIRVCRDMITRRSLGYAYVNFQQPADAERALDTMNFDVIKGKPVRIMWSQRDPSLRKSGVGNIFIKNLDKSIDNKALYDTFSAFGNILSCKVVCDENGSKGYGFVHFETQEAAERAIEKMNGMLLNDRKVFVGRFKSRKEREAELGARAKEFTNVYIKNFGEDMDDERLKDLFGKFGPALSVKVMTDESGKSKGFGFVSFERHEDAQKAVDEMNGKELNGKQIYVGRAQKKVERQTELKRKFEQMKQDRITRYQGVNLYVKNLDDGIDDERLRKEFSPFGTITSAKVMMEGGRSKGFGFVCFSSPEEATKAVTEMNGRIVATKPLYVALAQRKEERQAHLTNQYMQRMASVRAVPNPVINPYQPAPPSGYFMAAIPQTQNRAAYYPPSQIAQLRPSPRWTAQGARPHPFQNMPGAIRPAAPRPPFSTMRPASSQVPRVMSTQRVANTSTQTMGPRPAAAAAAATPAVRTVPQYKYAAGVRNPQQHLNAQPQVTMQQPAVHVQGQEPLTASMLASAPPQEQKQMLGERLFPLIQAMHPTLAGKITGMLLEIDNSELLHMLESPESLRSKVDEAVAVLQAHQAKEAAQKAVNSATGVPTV
eIF4H FP inh retest – also measured in eIF4H FP inh; calls as there; inhibition, %; compound at 20 µM; confirmation average;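 mean of two retest wells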
PABP polyA inh retest – further read-out of PABP polyA inh, marked with its call; inhibition, %; compound at 20 µM; confirmation repeats;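 mean of two retest wells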
MT1-MMP act inh RFP – further read-out of MT1-MMP act inh, marked with its call; RFP signal change, %; measured here: RFP expression control read;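 0 = vehicle wells; hits needed this value within 50% of zero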
Numbers without * were called inactive; i = inactive; x = not tested or not shown; + = active, no number; & = joins results of further samples.

SMILES | HIV Env fusion | eIF4H FP inh | CSC inhib | Rce1 inhib | Yeast UUG start | MT1-MMP act inh | MT1-MMP act inh RFP | PABP polyA inh | others
CCC(=O)Nc1ccc(S(=O)(=O)N2CCOCC2)cc1 | x | -1 | -15 | i | -11 | 5 | 3 | 6
CN(c1ccc(OCC(=O)NCc2cccnc2)cc1)S(=O)(=O)c1ccc(Cl)cc1 | -5 | -3 | 7 | i | x | 2 | 0 | -12
CCOC(=O)c1c(S(=O)(=O)N2CCN(C)CC2)c(C)n(C)c1C | 4 | -14 | -14 | i | 11 | -1 | 0 | -1
COc1cc(CN(CC2CCCO2)C(=O)c2cccs2)cc(OC)c1OC (stereo not given) | -4 | -17 | x | i | 0 | -2 | 2 | 1
COc1cc(C=O)c(Br)cc1OCc1ccc(C)cc1 | x | 2 | 5 | i | -5 | 2 | -3 | 20
Cc1cnc(C(=O)Oc2c(C)ccc(C)c2C)cn1 | 7 | 13 | -6 | i | x | 3 | 6 | 23
C[C@@H]1CN([C@H](C)CO)C(=O)CCCn2cc(nn2)CO[C@H]1CN(C)C(=O)OCc1ccccc1 | -20 | x | x | x | -7&-5 | 1 | 0 | x
N#Cc1c2c(c(-n3cnc4ccccc43)n3c1nc1ccccc13)CCC2 | x | 2 | -7 | i | -8 | -3 | 1 | 12
Cc1ccc(SCC(=O)NC(=O)NCCC(C)C)c(C)c1 | 17 | -14 | 1 | i | -8 | 1 | 6 | -2
Cc1ccc(-c2cc(-c3ccccc3)nc(N(C)N)n2)cc1 | 6 | -6 | 19 | i | -25 | x | x | 9
Cc1nc2c(C)cccc2c2c1CCS2 | 7 | 1 | -15 | i | x | 0 | 1 | 11
Cc1ccc(N(CC(=O)NCc2ccccc2Cl)S(=O)(=O)c2c(C)noc2C)cc1 | 8 | -12 | -6 | i | -12 | -1 | 0 | -10
C[C@H]1CCC(=O)N([C@H](CC#N)Cc2ccccc2)CC1 | -12 | 2 | -1 | i | -2 | 0 | 3 | 2
COc1cc(NC(=O)C2CCC(=O)N2S(=O)(=O)c2ccc(C)cc2)cc(OC)c1 (stereo not given) | 15 | 0 | -9 | i | -2 | -1 | 6 | 7
Cc1ccc(SCc2cc(=O)[nH]c(Nc3nc(C)c4ccccc4n3)n2)cc1 | 9 | -1 | 37 | i | x | -5 | -9 | 4
Cc1ccc(NC(=O)COC(=O)CN2C(=O)c3ccccc3C2=O)cc1S(=O)(=O)N(C)C | -40 | -4 | -1 | i | x | 4 | 4 | 2
O=C(NCc1cn2ccccc2n1)c1ccc2c(c1)OCO2 | 10 | -8 | -8 | i | -17 | -1 | -1 | 2
Cc1ccc(Nc2nc(Cl)c(C=O)s2)cc1 | -44 | 63 | 8 | i | x | -15 | 18 | 40 | eIF4H FP inh retest=49;PABP polyA inh retest=44
Cc1ccc(S(=O)(=O)N2CCN(C(=O)Cn3nc(C)c([N+](=O)[O-])c3C)CC2)cc1 | -14 | x | -9 | x | 1 | -1 | 1 | x
N/C(=N\OC(=O)CCCOc1ccccc1)c1cccc(Br)c1 | 8 | 5 | 2 | i | x | 3 | 2 | 9
CCCCCCCCCCNC(=O)CCn1[nH]c(=O)c2ccccc2c1=O | -91 | x | 13 | i | -15 | 0 | -1 | x
COc1ccc(NC(=O)CN(C)C(=O)c2cc(-c3ccc(OC)cc3)nc3ccccc23)cc1 | x | x | -4 | i | -13 | 4 | 2 | x
CCN(CC)CCCNc1nc2ccccc2c2nc(-c3ccncc3)nn12 | -24 | 0 | -2 | i | -3 | -13 | -7 | 4
CC(C)N(C(=O)CSc1nnc(NC(=O)C2CCC2)s1)C(C)C | -7 | -3 | -11 | i | -5 | 7 | -4 | 3
O=C(Nc1ncccc1O)c1ccc(S(=O)(=O)Nc2ccccc2)cc1 | x | x | 37 | i | -11 | 23 | 13 | x
CCc1ccc(NC(=O)Cc2c(C(=O)O)n(C)c3ccccc23)cc1 | 11 | 3 | -13 | i | -5 | -11 | -6 | 17
COc1ccc(-c2ccc(-c3nnc(-c4cc(OC)ccc4OC)o3)cc2)cc1 | -85 | -6 | -2 | + | -9 | 4 | 4 | 4
Cc1ccc2[nH]c(=O)c(CN(Cc3cccnc3)Cc3nnnn3CC3CCCO3)cc2c1 (stereo not given) | -9 | -2 | x | i | -4 | -1 | 1 | 1
Cc1cccc(S(=O)(=O)CC(=O)Nc2nc(-c3ccccc3)cs2)c1 | x | -8 | 10 | i | 9 | -10 | -10 | 1
COc1ccc([C@H]2CC(=O)C=C(c3ccc(Cl)c(Cl)c3)C2)cc1 | -38 | x | 21 | x | -18 | -4 | -2 | x
COCc1cc(C)n(CC(=O)Nc2ccc3c(c2)OCO3)c(=O)c1C#N | 6 | x | 1 | i | -18 | 3 | 1 | x
O=C(NC(=S)NCCc1ccccc1)c1ccccc1 | x | -2 | 13 | i | -16 | 2 | 3 | 6
O=S(=O)(c1cccc(-c2nc3ccccc3s2)c1)N1CCOCC1 | -17 | -8 | 11 | i | -10 | 3 | -4 | -2
CCOc1ccc(N2CC(C(=O)Nc3ncccc3C)CC2=O)cc1 (stereo not given) | x | 8 | -7 | i | x | -1 | 4 | 2
COc1ccc(CCNc2nc(C)nc3c2nnn3Cc2ccccc2)cc1 | -1 | 8 | -6 | i | -12 | 0 | 2 | 14
O=C(N/N=C/c1ccccc1)c1n[nH]c2c1CCCC2 | -57 | -4 | 21 | i | -18 | -2 | -3 | 5
CC(=NNC(=O)CSc1nc2ccccc2o1)c1ccco1 | -12 | x | 7 | x | -7 | 1 | -1 | x
CCCCc1nc2ccccc2c(=O)n1NC(=O)c1c(O)c2cccc3c2n(c1=O)CC3 | x | 8 | 13 | i | -12 | -12 | -14 | 7
CCC(=O)N1CCc2cc(Br)cc(S(=O)(=O)NCC3CCCN3CC)c21 (stereo not given) | -17 | -3 | -5 | x | -3 | -13 | -3 | 1
O=C(NCCCn1ccnc1)c1cc(S(=O)(=O)N2CCOCC2)c(Cl)cc1Cl | -7 | -2 | 26 | i | -18 | -1 | 1 | -8
N#Cc1ccccc1NC(=O)c1ccc2c(Cl)c3c(nc2c1)CCCC3 | x | -12 | 18 | i | -10 | x | x | 9
CC(C)c1ccccc1NC(=O)COC(=O)c1c2c(nc3ccccc13)CCN(Cc1ccccc1)C2 | -18 | 36 | 11 | i | x | -21 | -8 | -4
CC(C)(C)c1ccc(/C=C/C(=O)NC2CCS(=O)(=O)C2)cc1 (stereo not given) | 0 | -1 | 8 | i | -14 | 4 | 1 | 1
O=C(/C(=C(\[O-])c1ccccc1)[n+]1ccc2ccccc2c1)c1ccc(Cl)cc1 | -52 | 11 | -3 | i | x | -2 | 5 | 22
O=C(Nc1ccccc1-c1nc2ccccc2s1)C1=COCCO1 | 3 | 6 | 23 | i | x | -3 | 1 | 5
CC(C)(C)OC(=O)N1CCC(c2c(C(=O)NCC3CCN(C4CCCC4)C3)cnn2-c2ccc(F)cc2)CC1 (stereo not given) | 4 | -12 | -14 | i | -10 | 1 | 0 | -10
Cc1cc(-n2c(C)cc(C(=O)CN3C(=O)NC4(CCCC4)C3=O)c2C)no1 | x | 4 | 16 | i | -5 | 3 | 6 | 0
O=C(O)C1CCCCC1C(=O)NC1C2CC3CC(C2)CC1C3 (stereo not given) | -16 | 0 | -2 | i | -26 | 2 | 2 | 9
Cc1cccc(CS(=O)(=O)Cc2ccc(C(=O)NCCCN3CCCC3)o2)c1 | -22 | -4 | -24 | i | -5 | 2 | 1 | 10
C[C@@H]1COC(=O)[C@H](Cc2ccc(F)cc2)CC/C=C\C[C@@H](CC(=O)NCCO)C(=O)N1 | 9 | x | 1 | x | 4 | 3 | 2 | x
Additional structures.
SMILES | HIV Env fusion | eIF4H FP inh | CSC inhib | Rce1 inhib | Yeast UUG start | MT1-MMP act inh | MT1-MMP act inh RFP | PABP polyA inh | others
Cc1c(NC(=O)COC(=O)c2cc3c4ccccc4n(C)c3s2)c(=O)n(-c2ccccc2)n1C | -24 | -1 | -5 | i | 4 | 3 | 0 | -3
CC(C)Cc1nnc(NC(=O)C2=COCCO2)s1 | -13 | x | -7 | x | -16 | x | x | x
C[C@@H]1C(=O)O[C@@H]2[C@H](O)C34[C@H]5C[C@@H](C(C)(C)C)C36[C@H](OC(=O)[C@@H]6O)OC4(C(=O)O5)[C@@]12O (stereo not given in full) | -10 | 2 | -3 | i | -15 | -2 | 3 | 4
CCN(CC(=O)NCc1cccs1)CC(=O)Nc1ccccc1C | x | x | 2 | x | -8 | -4 | 1 | x
CC12C=CC3(O1)C(C(=O)N(c1cccnc1)C3C(=O)NC1CCCCC1)C2C(=O)Nc1ccccc1 (stereo not given) | -27 | -6 | 3 | i | -9 | 0 | -2 | -1
CSc1nc(O)c(C(c2cccc([N+](=O)[O-])c2)c2c(O)nc(SC)[nH]c2=O)c(=O)[nH]1 | -5 | 4 | -8 | i | x | 3 | 3 | -9
CCOc1ccc(S(=O)(=O)NC(C)(C)C)cc1-c1nc2c(C(C)(C)C)nn(C)c2c(=O)[nH]1 | x | -8 | x | i | -5 | 4 | -2 | 7
Cc1ccc2nc(N(CCN(C)C)C(=O)C3=COCCO3)sc2c1 | -9 | -13 | -7 | i | -18 | 3 | 2 | 6
COc1ccccc1CNC(=O)Cn1cccc1C(=O)c1ccccc1 | -7 | 0 | 14 | i | -16 | 0 | -1 | 10
Cc1cc(C)nc(NS(=O)(=O)c2ccc(N3C(=O)C4CCCCC4C3=O)cc2)n1 (stereo not given) | 7 | 5 | -1 | i | -15 | -1 | 2 | 6

By substructure: the entries above containing a nitro group on carbon.
SMILES | HIV Env fusion | eIF4H FP inh | CSC inhib | Rce1 inhib | Yeast UUG start | MT1-MMP act inh | MT1-MMP act inh RFP | PABP polyA inh | others
Cc1ccc(S(=O)(=O)N2CCN(C(=O)Cn3nc(C)c([N+](=O)[O-])c3C)CC2)cc1 | -14 | x | -9 | x | 1 | -1 | 1 | x
CSc1nc(O)c(C(c2cccc([N+](=O)[O-])c2)c2c(O)nc(SC)[nH]c2=O)c(=O)[nH]1 | -5 | 4 | -8 | i | x | 3 | 3 | -9

Going on with the list.
SMILES | HIV Env fusion | eIF4H FP inh | CSC inhib | Rce1 inhib | Yeast UUG start | MT1-MMP act inh | MT1-MMP act inh RFP | PABP polyA inh | others
Cc1cccc(NC(=O)CNC(=O)COC(=O)c2ccco2)c1C | -3 | x | 1 | x | -11 | -2 | 1 | x
CC(C)(C)NC(=O)C(=O)NNC(=O)c1cccc(Br)c1 | -19 | 8 | -5 | i | x | 8 | 7 | -1
Cc1ccc(NC2CCCN(C(=O)CCc3cn[nH]c3)C2)cc1C (stereo not given) | -7 | 1 | -4 | i | -24 | 0 | 3 | 4
O=C(C[C@@H]1C/C=C\C[C@@H](NC(=O)OCC2c3ccccc3-c3ccccc32)C(=O)OCCNC1=O)N[C@@H](CO)Cc1ccccc1 | -16 | x | 2 | x | -2 | -1 | -6 | x
O=C(COc1ccc(Br)cc1)NCCCn1ccnc1 | -4 | 7 | -5 | i | -11 | 6 | 8 | 4
COc1ccccc1-c1cc(-c2ccc(O)cc2)nc(N)c1C#N | -7 | 4 | 19 | i | x | 6 | 3 | 4
O=C(Nc1ccccc1)Nc1ncc(C(F)(F)F)cc1Cl | -17 | x | x | x | -4 | -3 | -1 | x
O=C(CC1(O)C(=O)Nc2cc(Cl)cc(Cl)c21)c1ccncc1 (stereo not given) | -34 | -3 | 4 | i | -12 | 1 | 9 | 0
Cc1cc(C)c(NC(=O)c2sc3nc(C)[nH]c(=O)c3c2C)c(C)c1 | -70 | 3 | -8 | i | x | x | x | -7
CCOc1ccccc1N=c1oc2cc(O)ccc2cc1C(=O)NCC1CCCO1 (stereo not given) | x | -2 | x | x | -13 | 1 | 1 | -4
COc1ccc(C(=O)CSc2[nH]c(=O)cc(C(F)(F)F)c2C#N)cc1 | 2 | 14 | 33 | i | x | -4 | -5 | 5

No enrichment for hits (roughly 2.9% active in at least one column).
